HPGD block = HPGD (human) dehydrogenase inhibition; P15428; purified HPGD, NADH fluorescence kinetic, PGE2 substrate; Potency, µM, without a hit: top-dose activity change, negative = inhibition, usual class: inhibitors; 4.3% of 150,000 active; active = well fitted inhibition curve with a large enough effect (not every such curve was filed as active); inconclusive = small, poorly fitted or top-dose-only effect, or another doubt; inactive = no such curve, though single readings can be large or run the other way;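 also: top concentration of the series not given in the record; plate controls included wells without enzyme; inactives centre near -10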
Target sequence (P15428 whole entry, looked up): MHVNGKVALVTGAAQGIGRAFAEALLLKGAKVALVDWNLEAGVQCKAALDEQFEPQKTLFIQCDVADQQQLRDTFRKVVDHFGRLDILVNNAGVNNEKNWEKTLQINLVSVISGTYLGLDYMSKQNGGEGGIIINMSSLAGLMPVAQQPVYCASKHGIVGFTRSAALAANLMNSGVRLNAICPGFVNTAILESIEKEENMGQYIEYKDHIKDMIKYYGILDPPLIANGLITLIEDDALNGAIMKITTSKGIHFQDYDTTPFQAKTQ
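20 nM HPGD preincubated 15 min at room temperature with compound in 50 mM Tris-HCl pH 8, 0.01% Tween 20. Started with 1 mM NAD+ and 30 uM prostaglandin E2; NADH fluorescence (360/450 nm) read 5 times over 30-s intervals, last minus first.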
Numbers without * were called inactive; ? = inconclusive; & = joins results of further samples. % is scaled to controls: 0 for no effect and ±100 for the full control effect; potency is read from the fitted curve at half-maximal effect.

The opening 23 compounds, to show the layout:
SMILES | HPGD block
CCCCN1C(=O)/C(=C2\SC(N3CCCCC3)=NC2=O)c2ccccc21 | 22µM*
CCOc1cccc(OCCCCN2CCCCC2)c1 | -1%
O=c1c2nnn(Cc3ccccc3)c2ncn1-c1ccccc1 | ?
C(=C\c1cccc2ccccc12)/c1nnc(-c2cccs2)o1 | ?
Cc1ccc(C)c(N(C(=O)c2nsc(Cl)c2Cl)C(C(=O)NC2CCCC2)c2ccc(O)cc2)c1 (stereo unspecified) | -17%
COC(=O)CN(c1ccccc1)S(=O)(=O)c1ccc(F)cc1 | -4%
COc1ccc(N=C2NC(=O)/C(=C/c3ccc(O)c(OC)c3)S2)cc1 | ?
CCS(=O)(=O)N(C)[C@@H]1c2cc(C#N)ccc2OC(C)(C)[C@H]1O | -1%&-10%
Cc1cc(C)c2nc(SCc3ccc([N+](=O)[O-])cc3)nc(C)c2c1 | -12%
COc1cc(NC(=O)CSc2nnc(C)s2)cc(OC)c1 | -4%
CC(C)(C)N/N=C/c1c(O)n(-c2ccc(Cl)cn2)c(=O)c2ccccc12 | -13%
CCOC(=O)Cc1csc(NC(=O)c2ccco2)n1 | -12%
C=CCn1cc(C(=O)NCCCOCC)c(=O)c2cc(S(=O)(=O)N(CC)CC)ccc21 | -13%
Nc1[nH]nc2nc(NCc3ccccc3)c3c(c12)CCN(Cc1ccccc1)C3 | -16%
O=C(c1ccccc1)c1ccc2ccccc2n1 | -8%
CC(C)(O)CCC(C)(C)O | 1%
CCNc1nnc(-c2ccc(C)cc2)o1 | -21%
Cn1c(SCc2cccnc2)nc2cccnc21 | 1%
Clc1ccc(-c2nnc3sc(-c4ccc(Br)o4)nn23)cc1 | ?
COCCCN(C(C)=O)c1nc(-c2ccc(OC)cc2)cs1 | -6%
CCc1cccc(CC)c1NC(=O)CSc1nnc(C(C)C)n1CC | -2%
Cc1c(NC(=O)C2CCCN(S(=O)(=O)c3cnc[nH]3)C2)c(=O)n(-c2ccccc2)n1C (stereo unspecified) | -4%
CC1CCCN(C(=O)C2CCN(CCCc3ccccc3)CC2)C1 (stereo unspecified) | -11%

This part in full, previewed entries included:
SMILES | HPGD block
CCCCN1C(=O)/C(=C2\SC(N3CCCCC3)=NC2=O)c2ccccc21 | 22µM*
CCOc1cccc(OCCCCN2CCCCC2)c1 | -1%
O=c1c2nnn(Cc3ccccc3)c2ncn1-c1ccccc1 | ?
C(=C\c1cccc2ccccc12)/c1nnc(-c2cccs2)o1 | ?
Cc1ccc(C)c(N(C(=O)c2nsc(Cl)c2Cl)C(C(=O)NC2CCCC2)c2ccc(O)cc2)c1 (stereo unspecified) | -17%
COC(=O)CN(c1ccccc1)S(=O)(=O)c1ccc(F)cc1 | -4%
COc1ccc(N=C2NC(=O)/C(=C/c3ccc(O)c(OC)c3)S2)cc1 | ?
CCS(=O)(=O)N(C)[C@@H]1c2cc(C#N)ccc2OC(C)(C)[C@H]1O | -1%&-10%
Cc1cc(C)c2nc(SCc3ccc([N+](=O)[O-])cc3)nc(C)c2c1 | -12%
COc1cc(NC(=O)CSc2nnc(C)s2)cc(OC)c1 | -4%
CC(C)(C)N/N=C/c1c(O)n(-c2ccc(Cl)cn2)c(=O)c2ccccc12 | -13%
CCOC(=O)Cc1csc(NC(=O)c2ccco2)n1 | -12%
C=CCn1cc(C(=O)NCCCOCC)c(=O)c2cc(S(=O)(=O)N(CC)CC)ccc21 | -13%
Nc1[nH]nc2nc(NCc3ccccc3)c3c(c12)CCN(Cc1ccccc1)C3 | -16%
O=C(c1ccccc1)c1ccc2ccccc2n1 | -8%
CC(C)(O)CCC(C)(C)O | 1%
CCNc1nnc(-c2ccc(C)cc2)o1 | -21%
Cn1c(SCc2cccnc2)nc2cccnc21 | 1%
Clc1ccc(-c2nnc3sc(-c4ccc(Br)o4)nn23)cc1 | ?
COCCCN(C(C)=O)c1nc(-c2ccc(OC)cc2)cs1 | -6%
CCc1cccc(CC)c1NC(=O)CSc1nnc(C(C)C)n1CC | -2%
Cc1c(NC(=O)C2CCCN(S(=O)(=O)c3cnc[nH]3)C2)c(=O)n(-c2ccccc2)n1C (stereo unspecified) | -4%
CC1CCCN(C(=O)C2CCN(CCCc3ccccc3)CC2)C1 (stereo unspecified) | -11%
COc1ccc2cc3cc(C(=O)NCCN4CCN(Cc5ccccc5)CC4)oc3nc2c1 | ?
CC(C)(C)c1ccc(OCC2CO2)cc1 (stereo unspecified) | -12%
CCS(=O)(=O)N1CCC(C(=O)NCc2ccc(F)cc2)CC1 | -3%
CCn1c(SCC(=O)N/N=C/c2c[nH]c3ccccc23)nnc1-c1ccc(C(C)(C)C)cc1 | -7%
Cc1cnnc2c1-c1no[n+]([O-])c1CC2 | -6%
COc1ccc(NS(=O)(=O)c2c(C)n(C)c(=O)n(C)c2=O)cc1OC | -7%
CCNc1nc(SCc2ccccc2)nc(N2CCOCC2)n1 | -4%
CCn1nc(NC(=O)c2ccco2)c2cc3ccc(C)cc3nc21 | ?
C/C=N/NC(=O)CCNC(=O)c1ccccc1 | -9%
COc1ccccc1/C=C/C=N/n1c(-c2ccncc2)n[nH]c1=S | 14µM*
Cc1ccc(SCC(=O)Nc2ccc3c(c2)OCCO3)cc1 | -4%
COc1ccc(O)c(C(=O)c2cnc3c(c2)c(=O)[nH]c(=O)n3C)c1 | 28µM*
Cc1cc(=O)[nH]c2ccc(Cl)cc12 | -18%
COc1ccc(C(CCNCc2ccccc2F)c2ccc(F)cc2)cc1 (stereo unspecified) | -6%
CS(=O)(=O)N1CCN(c2ccc(NC(=O)c3ccc(Br)o3)cc2)CC1 | -16%
COc1ccccc1OCCN1C(=O)S/C(=C\c2ccco2)C1=O | -14%
Nn1cnn(Cc2ccccc2)c1=S | 20µM*
COC(=O)c1cc(OC)c(OC)cc1NC(=O)Nc1ccccc1OC | ?
COc1ccc(/C=N\NC(=O)c2nn(C)cc2Cl)cc1CN1CCOCC1 | ?
O=C(CSc1c2c(nc3cc(Cl)ccc13)CCCC2)NCc1ccco1 | -19%
Cc1cc(C)c2nc(N3CCCC3)c(C#N)cc2c1 | -21%
N#Cc1ccc(NC(=O)c2sc3cc(C(F)(F)F)cnc3c2-c2cccs2)cc1 | ?
COc1ccc(-n2c(Cc3cccn3C)nnc2SCC(=O)Nc2ccc(C)cc2)cc1 | -6%
Cc1ccc(S(=O)(=O)N2CC3CCCN3c3ccc(C(F)(F)F)cc32)cc1 (stereo unspecified) | -13%
CCOC(=O)c1c(C)[nH]c(N=Nc2cccc(C)c2)c1C | -20%

Among those listed so far, two have a thiophene ring, fused or not.
SMILES | HPGD block
C(=C\c1cccc2ccccc12)/c1nnc(-c2cccs2)o1 | ?
N#Cc1ccc(NC(=O)c2sc3cc(C(F)(F)F)cnc3c2-c2cccs2)cc1 | ?

Next records
SMILES | HPGD block
Cc1ccc(O)c(C(=O)c2cnc3c(c2)COc2ccccc2-3)c1 | 13µM*
COc1ccc(C(=O)N2CCC[C@@]3(CCN(Cc4ccccc4)C3)C2)cc1 | ?
O=C(COc1ccc2ccccc2c1)Nc1cccc(C(=O)Nc2ccccc2C(=O)O)c1 | ?
Cc1cc(C(=O)N/N=C/c2cccc(OC(=O)c3ccco3)c2)n[nH]1 | -13%
COc1ccc(C(=O)NC(C)c2nc3ccccc3n2C)cc1OC (stereo unspecified) | -13%
CCC(C)NC(=O)C1CCCN(C(=O)NC2CCCCC2)C1 (stereo unspecified) | 0%
CN(C)CCN1C(=O)C(=O)/C(=C(/O)c2ccc(OCc3ccccc3)cc2)C1c1ccncc1 (stereo unspecified) | -11%
O=C1NC2(CCCCC2)C(=O)N1/N=C/c1ccc(O)cc1O | ?
Cc1cc(Nc2cc(C(=O)O)ccc2C)n2ncnc2n1 | -3%
N=C1C(=O)OCC1c1ccccc1NC(=O)CN1CCCCC1 (stereo unspecified) | -12%
O=C(Oc1ccc([N+](=O)[O-])cc1)c1cncc(Br)c1 | ?
CN(CC(=O)OCC(=O)Nc1ccccc1)S(=O)(=O)c1ccc(Cl)cc1 | -15%
Cc1cc(S(=O)(=O)Nc2ccccc2C(=O)O)ccc1F | -21%
COc1cc(C(=O)N[C@H](C(=O)NC(C)C23CC4CC(CC(C4)C2)C3)C(C)C)cc(OC)c1OC (stereo partly specified) | -15%
C=CCn1c(=N)n(CC(=O)OCC)c2ccccc21 | -2%
COc1ccc(CCN2C(=O)CC(NCc3ccc4c(c3)OCO4)C2=O)cc1OC (stereo unspecified) | -8%
COc1cccc(CNc2ccc(F)c(Cl)c2)c1 | -7%
C=C(C)COc1ccc2c3c(c(=O)oc2c1OCC(=C)C)CCC3 | -29%
CCOC(=O)c1ccc(CSc2nncn2N)o1 | ?
COc1ccccc1C(=O)N1CCNC(=O)C1CC(=O)Nc1cccc(C)c1 (stereo unspecified) | 0%
NS(=O)(=O)c1ccc(NC(=S)N2CCN(c3cccc(Cl)c3)CC2)cc1 | 25µM*
COc1ccc(C2=NOC(C(=O)NCc3ccccn3)C2)cc1 (stereo unspecified) | -8%
CCN1CCN(CC2CC3C=CC2C3)CC1 (stereo unspecified) | -3%
CCC(=O)Nc1sc2c(c1C(N)=O)CCC2 | -14%
Cc1ccc(-c2nnc(N3CCN(c4ccccn4)CC3)c3ccccc23)cc1 | -11%
CCc1ccc(C2C(C(C)=O)=C(C(=O)OC)Nc3nnnn32)cc1 (stereo unspecified) | -16%
Cc1ccc(OCCn2c(CCNC(=O)C(C)C)nc3ccccc32)cc1 | 2%
CCOc1ccc(-c2cc(C(=O)N3CCN(c4ccccn4)CC3)c3ccccc3n2)cc1 | ?
CN1CC(c2ccccc2)C2(SC(=S)N(Cc3ccco3)C2=O)C12C(=O)Nc1ccccc12 (stereo unspecified) | -15%
O=C(O)c1cc(S(=O)(=O)Nc2ccccc2C(=O)O)ccc1O | -15%
O=C(Nc1ccn(Cc2ccccc2F)n1)c1ccc(COc2cccc(Br)c2)cc1 | -25%
CCOc1ccc(-c2cnc3n2CCC3)cc1 | -2%
COc1ccc(-c2nc3ccccc3c(=O)n2CCN2CCOCC2)cc1 | 3%
O=c1c([N+](=O)[O-])c(NC2CCCCC2)c2ccccc2n1-c1ccccc1 | -28%
CCN(CC)S(=O)(=O)c1cccc(C(=O)N[C@H](C(=O)OCC(=O)NC(=O)NC)C(C)C)c1 | -1%
COc1ccc(S(=O)(=O)N2CCN(C(=O)c3cnc(C)cn3)CC2)cc1 | -5%
Cc1ccc(Sc2ncnc3onc(C)c23)cc1 | -17%
Cc1ccccc1-c1nc(CN2CCC(C(=O)NCc3cccnc3)CC2)c(C)o1 | -4%
CCOC(=O)CNNC(=O)Nc1ccc(Cl)c(Cl)c1 | -1%
COc1cc(NS(=O)(=O)c2ccc(NC(=O)NC3CCCCC3)cc2)nc(OC)n1 | -6%

Bioassay records from PubChem.

This is a subset; rates above refer to the full screens.
